Screening data as filed in PubChem BioAssay.
hNpr1 antagonist: antagonists of human natriuretic peptide receptor Npr1. P16066. HEK293 hNpr1 GloSensor cGMP, ANP-stimulated luminescence. Potency, µM (series often up to 46.3 µM), without a hit: at the highest dose activity change, negative = inhibition, most hits filed as inhibitors. 76,000 compounds, 1.6% hits. AID 1347048; active = well fitted inhibition curve with a large enough effect; inconclusive = small, poorly fitted or top-dose-only effect; inactive = no such curve, though single readings can be large or run the other way;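 also: nearly all actives have a fitted effect of over 60% in size; nearly all hits also lower the signal before the agonist is added; a reference antagonist and vehicle were the controls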
Target sequence (P16066 whole entry, looked up): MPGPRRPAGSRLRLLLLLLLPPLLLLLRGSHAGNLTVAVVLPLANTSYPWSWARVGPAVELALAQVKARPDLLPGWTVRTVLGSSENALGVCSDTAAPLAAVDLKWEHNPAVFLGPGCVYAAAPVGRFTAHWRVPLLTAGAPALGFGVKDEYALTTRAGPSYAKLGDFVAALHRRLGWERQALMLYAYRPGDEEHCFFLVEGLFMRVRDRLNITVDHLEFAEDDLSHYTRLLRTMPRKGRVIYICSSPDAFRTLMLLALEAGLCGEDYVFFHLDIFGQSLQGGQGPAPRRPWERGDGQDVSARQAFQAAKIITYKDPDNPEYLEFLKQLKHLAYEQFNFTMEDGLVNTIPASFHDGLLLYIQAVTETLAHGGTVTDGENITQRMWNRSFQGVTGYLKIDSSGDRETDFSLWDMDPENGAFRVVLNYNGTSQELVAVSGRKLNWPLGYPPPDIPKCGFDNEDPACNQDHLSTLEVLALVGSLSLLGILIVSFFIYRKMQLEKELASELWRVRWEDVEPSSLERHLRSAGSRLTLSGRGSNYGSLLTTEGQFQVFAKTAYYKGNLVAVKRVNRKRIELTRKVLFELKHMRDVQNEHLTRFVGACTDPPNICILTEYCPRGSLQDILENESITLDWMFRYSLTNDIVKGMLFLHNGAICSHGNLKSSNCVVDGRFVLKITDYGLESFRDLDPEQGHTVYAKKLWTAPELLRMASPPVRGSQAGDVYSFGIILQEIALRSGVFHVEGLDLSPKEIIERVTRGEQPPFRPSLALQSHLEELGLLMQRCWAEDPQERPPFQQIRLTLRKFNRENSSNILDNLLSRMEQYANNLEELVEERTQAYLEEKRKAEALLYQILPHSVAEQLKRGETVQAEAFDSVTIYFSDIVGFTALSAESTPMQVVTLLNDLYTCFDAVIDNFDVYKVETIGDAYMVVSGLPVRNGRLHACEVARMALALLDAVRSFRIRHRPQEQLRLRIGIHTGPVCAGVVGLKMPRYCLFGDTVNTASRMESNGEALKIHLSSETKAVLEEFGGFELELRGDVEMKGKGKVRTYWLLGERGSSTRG
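Compound pre-incubated 30 min at room temperature on GloSensor-loaded HEK293 cells stably carrying hNpr1 and the pGS-40F cGMP biosensor. Stimulation uses hNppA at 0.1 nM final; luminescence is taken at baseline and 20 min post-agonist.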
An asterisk follows results filed as active; ? = inconclusive; [ ] = remark or other dose. % is scaled to controls: 0 for no effect and ±100 for the full control effect; potency is read from the fitted curve at half-maximal effect. An excerpt, so the mix of outcomes need not match the whole.

hNpr1 antagonist	Molecule
11%	COc1ccc(-c2noc(-c3nc(-c4cc(OC)c(OC)c(OC)c4)no3)n2)cc1OC
0%	CCC1c2nccn2CCCN1C(=O)COc1cccc(C)c1 (stereo not drawn)
8%	O=C(Nc1cccc(F)c1)N1CCC2(CC1)CC(N1CCOCC1)CCO2 (stereo not drawn)
-3%	O=C(O)CC[C@@H]1CN(c2cnccn2)CC[C@@H]1N1CCOCC1
-1%	COc1cc(CNCCC(C)C)ccc1OCC(O)CN1CCSCC1 (stereo not drawn)
3%	CCCn1c(C)cnc1CC1CCN(C(C)=O)C1 (stereo not drawn)
20%	CCOc1ccccc1NC(=O)Cn1c(=O)c(-c2noc(C)n2)c2n(c1=O)CCCC2
1%	CCC1CCN(CC2(O)CCCN(Cc3cc(OC)ccc3F)C2=O)CC1 (stereo not drawn)
5%	O=C1NCCCCCCN(S(=O)(=O)c2ccc3c(c2)OCCO3)[C@H]2CCC[C@@H]12
5%[70.6 µM]	COC[C@H]1C[C@@H](NC(=O)c2cc(C)on2)[C@H](O)[C@@H]1O

(further entries)
hNpr1 antagonist	Molecule
3%	Cc1ccc(C(=O)N2CCCC2c2nc(CCOCC3CC3)no2)cn1 (stereo not drawn)
7%	CCCS(=O)(=O)N1CCCC(Cc2noc(-c3ccncc3)n2)C1 (stereo not drawn)
-10%	CNc1nc(N2C[C@H]3CN(CCCOC)C[C@@]3(C(=O)O)C2)ncc1F
3%	CC(=O)N1CC2(Cc3ccccc31)CN([S+](=O)([O-])c1c(C)noc1C)C2
7%	Cn1ncc(CN2CC[C@@H](c3ccc4c(c3)OCO4)[C@H](O)C2)c1C1CC1
5%	O=C(Nc1ccc2c(N3CCOCC3)ncnc2c1)c1ccccc1C(F)(F)F
2%	CCc1ccc(NC(=O)Cn2c(N3CCCCC3)nc(C)c(C)c2=O)cc1
-10%	CC(=O)Nc1ccc(NC(=O)CN2C(=O)NC(c3ccc(C)cc3)C3=C2COC3=O)cc1 (stereo not drawn)
0%[70.6 µM]	OC[C@H]1C[C@@H](NCc2cccnc2)[C@H](O)[C@@H]1O
2%	Cc1noc(C)c1S(=O)(=O)N1CCCC(Cc2nncn2C(C)C)C1 (stereo not drawn)

(next part)
hNpr1 antagonist	Molecule
0%	CN(C(=O)C1(N)CC1)C1CCCN(CCCc2ccccc2)C1 (stereo not drawn)
9%[70.6 µM]	CN(C(=O)Nc1ccccc1)C1CCOc2ccccc21 (stereo not drawn)
-3%	CCN1C(=O)C2(CCN(S(=O)(=O)c3cccc(OC)c3)CC2)c2ccccc21
-3%	Cc1ccc(CNC(=O)C2(CCO)CC23CCOCC3)o1 (stereo not drawn)
?	Cc1noc(C)c1S(=O)(=O)N1CCC(C(=O)NCCc2noc(C3CC3)n2)CC1
4%[70.6 µM]	Cc1cc(C(=O)N[C@H](C)c2c(-c3ccc(F)cc3)noc2C(=O)O)nn1C
-3%	COCCc1nncn1C1CCN(S(=O)(=O)c2ccc(C)c(F)c2)CC1
11%	Cn1nc(C(=O)N2CCC(c3n[nH]c(=O)n3-c3ccccc3)CC2)c2ccccc21
1%	COCC(=O)Nc1ncncc1-c1noc([C@@H]2CCCN2Cc2cc(OC)c(OC)c(OC)c2)n1
0%	O=C(c1ccccc1)N1CCCC(c2nn(-c3ccc(Cl)cc3)c(=O)[nH]2)C1 (stereo not drawn)

(cont.)
hNpr1 antagonist	Molecule
?	COCCNC(=O)CC(c1ccc(Cl)cc1)c1c[nH]c2ccc([N+](=O)[O-])cc12 (stereo not drawn)
4%	COCCN(C)C[C@H]1C[C@@H](CO)CN(C(=O)c2ccc(C)c(Cl)c2)C1
0%	COCCN1C(=O)c2cccn2CC1CNC(=O)c1ccc(OC)c(OC)c1 (stereo not drawn)
-4%	CN(CC1CCOC1)C(=O)c1ccccc1C(F)(F)F (stereo not drawn)
-5%	CN(Cc1cccnc1)c1nc2c(c(=O)[nH]1)CCN(Cc1ccccc1Cl)CC2
1%	CCc1nc2cc(N3CCC(C(=O)NCc4cc(F)cc(F)c4)CC3)cnc2nc1CC
0%	COCCc1noc([C@@H]2CC(F)(F)CN2C(=O)c2ccccn2)n1
?	CCn1nc(C(C)C)cc1C(=O)N1CCc2onc(-c3cccc(F)c3)c2C1
2%	COc1ccc(CCC(=O)N[C@H]2[C@@H]3CCO[C@@H]3[C@@H]2C2CCCC2)cc1OC
8%	C=CCn1c(-c2ccc(F)cc2)cn2cc(C(=O)N[C@@H](C)CO)nc2c1=O

Continuation.
hNpr1 antagonist	Molecule
5%	O=C(c1cnccn1)N1CCCC(Cc2noc(-c3ccccn3)n2)C1 (stereo not drawn)
5%	O=C(Cn1cccc1-c1nc(-c2ccc3c(c2)OCO3)no1)Nc1ccc(F)c(F)c1
-1%[70.6 µM]	O=C(NCCO)c1ccc(-c2ncc3cnc(C4=CCOCC4)cn23)cc1
-3%[70.6 µM]	Cn1cc(CC(=O)N2CCCc3ncc(C(=O)Nc4cccnc4)cc32)c2ccccc21
-3%	O=C(Cc1cccs1)N1CC(Oc2ccccc2-c2nc(C3CC3)no2)C1
-9%	COc1ccc(C(=O)N2CCC3(CC2)NC(=O)N(Cc2ccc(F)cc2)C3=O)c(OC)c1
0%[70.6 µM]	COc1ccc(CNC(=O)[C@@H]2Cc3nc[nH]c3CN2C(=O)NC2CCCCC2)cc1
5%	O=C(NC1CCCCC1)[C@@H]1C[C@@H](O)CN1C1CCN(C(=O)c2ccc(Cn3ccnc3)o2)CC1
-5%	O=C(NCc1ccccn1)C1CN(S(=O)(=O)c2cccs2)CC12CCCCC2 (stereo not drawn)
1%	CCOCC(=O)N1CCc2nc(N3CCN(C)CC3)sc2C1

A different layout for 2 compounds above.
molecule | hNpr1 antagonist
O=C(NC1CCCCC1)[C@@H]1C[C@@H](O)CN1C1CCN(C(=O)c2ccc(Cn3ccnc3)o2)CC1 | 5%
O=C(NCc1ccccn1)C1CN(S(=O)(=O)c2cccs2)CC12CCCCC2 (stereo not drawn) | -5%

The results go on.
hNpr1 antagonist	Molecule
20µM*	CC1(NC(=O)C2CC2)CN(c2ccc(Oc3ccccc3)cc2)C1
-28%	O=C(Nc1cccc(Cl)c1)c1cc2n(n1)CC(c1ccc3c(c1)OCO3)OC2 (stereo not drawn)
-12%	O=C(CCc1ccnc(N2CCOCC2)c1)Nc1ccc2c(c1)OCO2
-7%	O=C(CCc1conc1-c1cccc(F)c1)NC1CCCCC1
0%	CC(=O)N1CCC(n2nccc2NC(=O)Nc2ccccc2C)CC1
3%	CN1C(=O)CCCCC1C(=O)NCc1cccs1 (stereo not drawn)
-30%	CCn1cc(CN2CC(Oc3ccc(-c4noc(-c5ccncc5)n4)cc3)C2)cn1
3%	Cc1ccc(-c2ccc3nnc(CNC(=O)c4ccc(F)c(F)c4)n3n2)cc1
1%	CNC(=O)[C@H]1C[C@H](Oc2ccccc2)CN1Cc1ccc(OC(C)C)cc1
5%	O=C(Cn1ccn2nc(-c3ccc(F)cc3)c(CO)c2c1=O)Nc1ccccc1F

hNpr1 antagonist: what is marked active above
hNpr1 antagonist	Molecule
20µM*	CC1(NC(=O)C2CC2)CN(c2ccc(Oc3ccccc3)cc2)C1

Going on with the list:
hNpr1 antagonist	Molecule
2%	Cc1nc2c(c(-c3ccc(Cl)cc3)n1)CCN([S+](C)(=O)[O-])CC2
21%	COc1cccc(CN2CCC3(CC2)C(=O)NCN3Cc2ccc(Cl)cc2)c1
-15%	O=C(c1ccncc1)N1CCN(C(=O)c2nnn3c2COC(c2ccc(Cl)cc2)C3)CC1 (stereo not drawn)
?	O=C(COc1ccc(F)cc1)NC1CCN(c2cc(-c3ccccc3)[nH]n2)CC1
2%	Cc1ccc2nc(NC(=O)Cn3nc4c(cc3=O)CCCCC4)sc2c1
-1%	CSCC[C@@H]1NC(=O)c2cc(NC(=O)c3cccc4c3ccn4C)ccc2NC1=O
-1%	CC(C)CCN1CCC(N2CCN(S(=O)(=O)c3cccc(C(F)(F)F)c3)CC2)C1=O (stereo not drawn)
0%	CN1CCC(C(=O)N2CC(F)(F)C[C@H]2c2nc(C3CC3)no2)CC1
-7%	O=c1[nH]nc2n1CCN(Cc1ccc3c(c1)CCO3)CC2
4%	CC(C)c1cc(CN(C)C(=O)CN2C(=O)OC[C@@H]2c2ccccc2)no1

Further records:
hNpr1 antagonist	Molecule
1%	O=C(c1cc[nH]c(=O)c1)N1C[C@@H](COCC2CC2)[C@H](c2ccccn2)C1
-16%	Cc1ccsc1C(=O)N1CCC(Cc2nc(C3CCOCC3)no2)CC1
1%	O=C([C@H]1C[C@H](Oc2ccccc2)CN1C(=O)c1ccccc1)N1CCOCC1
3%	O=C(NCCC1CCN(C(=O)Nc2cc(F)ccc2F)CC1)c1cccc(F)c1
3%	CNC(=O)[C@@H]1C[C@@H](n2cc(C(C)(C)NC(=O)CC3CCCC3)nn2)CN1
4%	CCc1noc(-c2ccn3c(CNC(=O)c4cc(C)ccc4C)nnc3c2)n1
4%	CN(C)C[C@@H]1CN(c2ncccn2)C[C@H]1NC(=O)c1ccnn1C
-20%	C=CCNC(=O)c1coc(COc2ccc3c(c2)C(c2ccc(C)cc2)N(C(=O)C2CC2)CC3)n1 (stereo not drawn)
4%	Cc1ccccc1N1CCN(C2CCCN(C/C=C/c3ccc(F)cc3)C2)CC1 (stereo not drawn)
-1%	CCN(Cc1noc(C2CCC2)n1)C(=O)C1CCN(c2ccccc2)C1=O (stereo not drawn)

(more compounds)
hNpr1 antagonist	Molecule
6%[70.6 µM]	O=C(c1ccc2nccn2c1)N1CCN(c2ncccn2)CC1
-7%	Cc1ccc(C(=O)N2C(C(=O)NC(C)C)COC23CCN(C(=O)c2cccc([N+](=O)[O-])c2)CC3)cc1 (stereo not drawn)
-13%	CC(C)c1noc(-c2cn(C3CCN(C(=O)COc4ccccc4)CC3)nn2)n1
5%[70.6 µM]	O=C(NCCc1ccccn1)c1ccnc(-c2nnc3ccc(Nc4ccccc4)nn23)c1
-11%[70.6 µM]	CN(C)Cc1cccc(-c2cc3c(ccn3Cc3ccncc3)c(N3CCOCC3)n2)c1
?	COc1ccc(-c2noc([C@@H]3Cc4nc[nH]c4CN3C(=O)c3cccs3)n2)cc1
4%	Cc1ccc(OC2(C(=O)O)CCN(C(=O)C3CCOCC3)CC2)cc1
-1%	O=C(N[C@H]1CO[C@H]2[C@@H]1OC[C@@H]2n1cc(COc2ccccc2)nn1)c1ccc(C(F)(F)F)cc1
-1%[70.6 µM]	CN1CCC(N2C[C@@H]3C[C@H]2C(=O)Nc2ccccc2O3)CC1
-4%	COCc1nc(C2CCCN(C(=O)Cc3ccc(OC)cc3)C2)no1 (stereo not drawn)

6 compounds drawn at random from those above, as already listed:
hNpr1 antagonist	Molecule
-11%[70.6 µM]	CN(C)Cc1cccc(-c2cc3c(ccn3Cc3ccncc3)c(N3CCOCC3)n2)c1
-1%[70.6 µM]	CN1CCC(N2C[C@@H]3C[C@H]2C(=O)Nc2ccccc2O3)CC1
-4%	COCc1nc(C2CCCN(C(=O)Cc3ccc(OC)cc3)C2)no1 (stereo not drawn)
-7%	Cc1ccc(C(=O)N2C(C(=O)NC(C)C)COC23CCN(C(=O)c2cccc([N+](=O)[O-])c2)CC3)cc1 (stereo not drawn)
5%[70.6 µM]	O=C(NCCc1ccccn1)c1ccnc(-c2nnc3ccc(Nc4ccccc4)nn23)c1
6%[70.6 µM]	O=C(c1ccc2nccn2c1)N1CCN(c2ncccn2)CC1

Further results.
hNpr1 antagonist	Molecule
-1%	Cc1ncoc1C(=O)N1CCCN(Cc2ccncc2)C(c2ccccc2)CC(=O)NCC1 (stereo not drawn)
5%	O=C(NCCOc1ccccc1)[C@@H]1C[C@@H](c2ccc(F)cc2)N([S+](=O)([O-])c2cccnc2)C1
1%	O=C(N[C@H]1CCOC[C@H]1C1CCOCC1)c1ccccc1-c1ccccc1
-4%	COc1ccccc1C(=O)N1CCC2(CC1)NC(=O)N(Cc1ccc(F)cc1)C2=O
1%	CN(CCc1ccccn1)C(=O)CCC[C@@H]1[C@H]2CCCN3CCC[C@@H](CN1Cc1cccnc1)[C@@H]23
-1%	COc1ccc(CC(=O)N2CCCN(c3cc(-c4ccc(F)cc4)[nH]n3)CC2)cc1
-2%	CC(C)c1ccc(CNC(=O)[C@H]2CCC[C@H]2NC(=O)c2ccncc2)cc1
-12%[70.6 µM]	COc1ccc(-c2cc(-c3ccncc3)c3cncn3c2)cc1
0%	CCOc1ncccc1C(=O)N1CCN(Cc2ccccc2)CC(O)C1 (stereo not drawn)
?	Cc1ccc(-c2cc3c(=O)n(CCNC(=O)c4cccc(C#N)c4)ccn3n2)c(C)c1

Next part
hNpr1 antagonist	Molecule
7%	COc1ccc(NC(=O)N2C[C@@H]3C[C@H](C2)c2c(NC(=O)c4ccccc4)ccc(=O)n2C3)cc1
-88%	CC(=O)N1CCN(Cc2ccc(-c3cnc4c(OCc5ccccc5)nccn34)cc2)CC1
-1%	O=C1CC(c2ccccc2)N(S(=O)(=O)c2ccc3c(c2)OCCO3)CCCCCN1 (stereo not drawn)
2%	CNC(=O)c1ccc(N2CC3CC(C2)[C@H]2CCCC(=O)N2C3)nc1 (stereo partly drawn)
-2%	CCCn1cc(S(=O)(=O)N2C[C@H](C3CC3)[C@@H](N)C2)cn1
22%	Cc1cn2nc(C(=O)N3CCC(NC(=O)c4ccco4)CC3)cc2c(=O)[nH]1
-4%	Clc1ccccc1C1(c2ccnc(NCCc3cccnc3)n2)CCNCC1
0%[70.6 µM]	CC(=O)N1CC2(Cc3ccccc31)CN(C(=O)C(C)(C)C)C2
-8%	CC(C)N1CCN(Cc2nnc3cc(-c4nc(-c5ccccc5)no4)ccn23)CC1
-6%[70.6 µM]	CC(C)CN1C(=O)CO[C@H](c2ccc(NS(=O)(=O)CC(C)C)cc2)[C@H]1CO
0%	N#Cc1cccc(CN2CCOCCNC(=O)CC2)c1
1%	Cn1cccc1C(=O)N1CCCCCCNC(=O)CC1
2%	CN(C)C(C(=O)NCc1noc(Cc2ccccc2)n1)c1ccc(F)cc1 (stereo not drawn)
